A1 inh = inhibitors of the anti-apoptotic protein A1, read as caspase activation. caspase activation, % (test concentration not listed). 0.066% of 330,000 active. MEF A1-2A-BIM cells, Caspase-Glo 3/7 luminescence, 3 h; percent of clofoctol response, vehicle zero;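 active means over half of replicate activation scores above 10%, or exactly half above 10 with the replicate mean above 10; inconclusive means replicate mean below 10 yet half the replicates above 10; inactive means over half of replicates below 10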;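 further: wells of about 30 µL received 50 nL stock; many hits fall short of the cut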
Calb FLC = C. albicans growth modulation with fluconazole | C. albicans CaCi-2 (fluconazole-resistant clinical isolate) + fluconazole, Alamar Blue growth, 48 h | growth inhibition, % (no concentration beside the values) | 0.57% of 300,000 active | AID 1979;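 active means most replicates above 75%; inconclusive means exactly half above 75%; inactive means most below 75%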;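 further: all wells also contain fluconazole at 8 µg/ml as a sub-toxic cotreatment; 0% = median of DMSO wells and 100% = median of geldanamycin control wells; wells of about 8 µL received 7.5 nL stock; the first replicate is given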
T cruzi inh = T. cruzi replication inhibition. 1.4% of 300,000 active. inhibition, % (test concentration not listed). T. cruzi beta-gal in NIH3T3, luminescence, 90 h;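 active means mean inhibition across valid replicates above about 55%, limit read from the data; inconclusive means mean below that limit but half or more replicates reach it; inactive means mean below it, under half of replicates reach it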;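 further: signal also drops with host cell toxicity which is not excluded here; 0% = plate median of DMSO wells and 100% = zero luminescence signal; higher percent means less beta-gal luminescence so fewer parasites; stock transfer was 50 nL into about 50 µL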
Beta cell apopt = beta cell apoptosis inhibition. INS-1E cytokine-induced death, ATP luminescence, 48 h; percent of positive-control rescue, neutral wells zero. protection from apoptosis, % (test concentration not listed). 0.8% of 300,000 active. AID 435005;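 active means all replicates at 75% or more, or half of them and the mean; inconclusive means half reach 75% but not the mean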;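 further: 0% = cytokine-treated negative control wells and 100% = positive control rescue; higher means more ATP so stronger rescue from cytokine killing; wells of about 40 µL received 100 nL stock; the first replicate is given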
RanGTP-Imp inh = inhibitors of RanGTP-importin-beta interaction, primary screen, biochemical, FRET, CFP-Ran, YFP-importin-beta, homogeneous; cell-free CFP-Ran/YFP-importin-beta FRET ratio; inhibition, % (test concentration not listed); 1.1% of 300,000 active;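 active means most replicates above 15%; inconclusive means exactly half above 15%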;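 further: 0% = DMSO wells and 100% = Ran loaded with GDP instead of GTP; wells of about 40 µL received 100 nL stock; the first replicate is given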
Vif A3G = inhibitors of Vif binding to APOBEC3G peptide, primary screen, biochemical, TR-FRET, GST-Vif 1-94, biotin-A3G peptide, dose response retest (AID 1117319) | TR-FRET GST-Vif / biotin-A3G peptide binding; higher % means a stronger effect; test concentration not given here; strong numbers were not always called active | inhibition, %; hits with a dose series show IC50 in µM | 0.57% of 260,000 active;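 active means above the screen mean plus three standard deviations and confirmed in dose response; inconclusive means results disagree or hit not tested in dose response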;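 further: Vif residues 1-94 fused to GST binding biotinylated APOBEC3G peptide 110-148; 0% = full assay without inhibitor and 100% = GST in place of GST-Vif; retest series ran down from 100 µM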
AF4-AF9 inh = inhibitors of human MLL-AF4/AF9 interaction. P42568. AlphaScreen, biotin-AF4 peptide binding to FLAG-AF9. inhibition, % at 10 µM. 0.47% of 350,000 active;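 active means every replicate reaching a set inhibition limit, whatever the replicate mean, cut at about 25% in these data; inconclusive means mean inhibition reaches that limit but some replicates miss it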;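 further: 0% = plate neutral control median and 100% = total signal loss; the record names both 10 and 1 µM as test concentration; the first replicate is given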
Target sequence (P42568 whole entry, looked up): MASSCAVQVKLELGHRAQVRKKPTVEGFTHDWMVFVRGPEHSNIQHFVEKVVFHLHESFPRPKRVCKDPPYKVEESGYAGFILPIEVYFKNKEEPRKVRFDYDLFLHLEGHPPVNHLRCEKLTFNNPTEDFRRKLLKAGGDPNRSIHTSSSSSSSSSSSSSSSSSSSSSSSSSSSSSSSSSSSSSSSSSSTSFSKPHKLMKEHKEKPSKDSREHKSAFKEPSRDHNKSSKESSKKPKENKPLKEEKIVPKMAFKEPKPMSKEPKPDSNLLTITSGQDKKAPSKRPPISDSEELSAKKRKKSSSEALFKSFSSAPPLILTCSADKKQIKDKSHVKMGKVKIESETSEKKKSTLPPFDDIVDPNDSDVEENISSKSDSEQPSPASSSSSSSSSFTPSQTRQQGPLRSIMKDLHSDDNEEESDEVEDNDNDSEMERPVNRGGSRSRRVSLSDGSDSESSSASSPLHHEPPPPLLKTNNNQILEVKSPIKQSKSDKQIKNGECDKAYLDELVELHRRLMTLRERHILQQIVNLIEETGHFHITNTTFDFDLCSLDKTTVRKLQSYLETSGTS
rRNA inh HTS = selective bacterial rRNA inhibition in E. coli. GFP signal change (wild-type ribosome), % (no concentration beside the values). 1.6% of 350,000 active. E. coli WT GFP vs humanized-ribosome RFP mutants, fluorescence, 24 h; active compounds read low; DMSO median 0, no signal -100. AID 720706;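 active means significant combined selectivity score with lowered wild-type GFP, culture density cut under 30%, mutant RFP and density less affected; inactive means any of these conditions unmet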; further: one replicate is shown; some compounds called inactive have numbers as strong as hits
rRNA inh HTS OD600 = second read-out of rRNA inh HTS, no call of its own (marks repeat the call); OD600 change, %; measured here: OD600 growth;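 optical density of the mix in the first replicate; 0 = DMSO median and -100 = no signal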
rRNA inh HTS RFP = further read-out of rRNA inh HTS, marked with its call; RFP signal change, %; measured here: RFP humanized mutant strains;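 first replicate; 0 = DMSO median and -100 = no signal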
Active calls of the source: *; ? = inconclusive; . = no result given; & = joins results of further samples.

SMILES	A1 inh	Calb FLC	T cruzi inh	Beta cell apopt	RanGTP-Imp inh	Vif A3G	AF4-AF9 inh	rRNA inh HTS	rRNA inh HTS OD600	rRNA inh HTS RFP
Cc1cc(=O)[nH]c(N/N=C/c2cccs2)n1	-2.8	-2	-15	3	-0.2	5%	.	.	.	.
O=C(NCCC(=O)N(CCc1ccccc1)Cc1ccccc1)c1ccc([N+](=O)[O-])cc1	0.6	6	18	12	0.8	-10%	12	-6	-7	-2.6
Cc1cccc(N2CCc3c2nc2ccc(Br)cc2c3N)c1	-0.3	?	39	28	5.9	8%	-0.8	-49*	-39*	-16*
O=C(CNC(=O)c1ccc(Br)o1)Nc1ncccc1O	-2.1	-2	7	-6	5.1	10%	-0.3	17	23	6.0
O=C(Nc1ccc2c(c1)OCO2)C1CCCN1C(=O)Nc1ccccc1 (stereo unspecified)	0.4	-3	-1	4	1.1	.	0.6	3	13	-3.6
C=CCn1c(SCC(=O)Nc2sccc2C#N)nc2sc(C)c(C)c2c1=O	0.4	-5	3	1	3.7	6%	.	8	9	10.0
CCOC(=O)Cn1c2ccccc2n2nc(CCC(=O)O)c(=O)nc12	0.2	4	9	6	3.9	-1%	-2.1	15	12	0.0
COc1ccc(-c2c(C#N)c(C)nc3c2C(=O)c2ccccc2-3)cc1	0.9	6	-3	1	2.3	-7%	.	.	.	.
Cc1ccc2oc(=O)n(CCC(=O)Nc3ccc(N4CCOCC4)cc3)c2c1	-0.3	-12	27	5	-1.4	3%	-1.9	-7	-4	2.6
COc1cc(OC)cc(-c2oc(=O)c3cc(OC)c(OC)cc3c2C#CCCCO)c1	-2.2	.	.	16	.	.	0.1	8	11	6.3
Nc1ccc2c(c1)nnn2-c1ccccc1	-0.8	-1	-8	2	2.0	.	-18	4	5	4.1
CCCn1c(C)cc(=O)c2cc(NC(=O)c3ccccn3)ccc21	0.5	-63	11	6	-0.2	5%	.	.	.	.
CCn1c(=O)c(C(=O)NNS(=O)(=O)c2ccc(Cl)cc2)c(O)c2ccccc21	0.3	-2	-2	-5	-3.6	.	.	.	.	.
COc1cc(/C=N/Nc2nc3ccccc3[nH]c2=O)ccc1O	-0.7	-5	-12	-1	-1.6	-2%	0.0	0	6	1.3
CCN(CC)c1nc(C#N)cc(-c2ccc(OC)cc2)n1	-0.2	-11	41	22	-7.9	7%	.	.	.	.
Cc1ccn2c(NC3CCCCC3)c(C)nc2c1	0.3	-28	0	-15	1.0	0%	.	.	.	.
Nc1ccc2nc(Cc3ccccc3)[nH]c2c1	1.1	7	-1	-2	0.4	3%	17	-1	11	-4.0
CCOc1ccccc1NS(=O)(=O)N(C)C	0.1	-3	-9	-2	2.5	4%	.	.	.	.
CCN1C(=O)CC(C(=O)NC)SC1=Nc1cc(Cl)c(O)c(Cl)c1 (stereo unspecified)	-0.5	-10	2	-4	-1.7	5%	.	.	.	.
CCCOc1ccc(N2C(=O)C3ON(c4ccccc4)C(CCC)C3C2=O)cc1 (stereo unspecified)	3.4	11	-2	.	1.6	?	.	.	.	.
O=C(CNC(=O)c1ccccc1)OC(C(=O)Nc1cc(C(F)(F)F)ccc1Cl)c1ccccc1 (stereo unspecified)	0.6	11	2	-5	5.4	-1%&-14%	.	.	.	.
O=C(Nc1ccccc1OC(F)F)C1CCCN1C(=O)c1cccs1 (stereo unspecified)	0.5	-6	-10	-4	1.5	2%	-1.4	9	2	-4.6
NC(=O)COC(=O)c1oc2ccccc2c1CSc1ccc(Cl)cc1	0.2	23	-8	10	0.3	.	1.1	3	-6	5.1
O=C(CCC(NC(=O)OCc1ccccc1)C(=O)OCc1ccccc1)NCC(=O)OCc1ccccc1 (stereo unspecified)	0.1	-1	-12	-8	3.8	-3%	.	.	.	.
N#Cc1ccccc1NC(=O)COc1ccccc1C(=O)Nc1ccccc1	1.7	.	.	-2	.	.	0.1	-1	-3	0.0
CSCC[C@H](NC(=O)OC(C)(C)C)C(=O)N1CCC(C(=O)N[C@@H](C)C(=O)NCc2ccc(F)cc2)CC1	0.9	2	-13	.	-0.5	.	-9.6	3	5	0.8
Cc1ccc(Cn2c(-n3nc(C)cc3C)nc3c2c(=O)[nH]c(=O)n3C)cc1	-0.2	-6	6	6	4.8	3%	.	.	.	.
O=C(NC1CCCCC1)c1cc(-c2ccc(F)cc2)on1	-0.2	20	-9	-1	1.2	.	3.3	.	.	.
CCOC(=O)C1CCCN(S(=O)(=O)c2ccc3c(c2)C(C)(C)C(=O)N3C)C1 (stereo unspecified)	0.8	-3	7	0	-2.6	.	-0.8	-1	8	-0.4
COc1ccc(C(=O)Nc2c(C(C)(C)C)nn(C)c2C(C)(C)C)cc1	0.1	-1	10	8	0.0	.	-4.7	0	5	-1.9

In another format: entries from further up
Molecule | A1 inh | Calb FLC | T cruzi inh | Beta cell apopt | RanGTP-Imp inh | Vif A3G | AF4-AF9 inh | rRNA inh HTS | rRNA inh HTS OD600 | rRNA inh HTS RFP
CCCn1c(C)cc(=O)c2cc(NC(=O)c3ccccn3)ccc21 | 0.5 | -63 | 11 | 6 | -0.2 | 5% | . | . | . | .
CCn1c(=O)c(C(=O)NNS(=O)(=O)c2ccc(Cl)cc2)c(O)c2ccccc21 | 0.3 | -2 | -2 | -5 | -3.6 | . | . | . | . | .
COc1cc(/C=N/Nc2nc3ccccc3[nH]c2=O)ccc1O | -0.7 | -5 | -12 | -1 | -1.6 | -2% | 0.0 | 0 | 6 | 1.3
CCN(CC)c1nc(C#N)cc(-c2ccc(OC)cc2)n1 | -0.2 | -11 | 41 | 22 | -7.9 | 7% | . | . | . | .
Cc1ccn2c(NC3CCCCC3)c(C)nc2c1 | 0.3 | -28 | 0 | -15 | 1.0 | 0% | . | . | . | .
Nc1ccc2nc(Cc3ccccc3)[nH]c2c1 | 1.1 | 7 | -1 | -2 | 0.4 | 3% | 17 | -1 | 11 | -4.0
CCOc1ccccc1NS(=O)(=O)N(C)C | 0.1 | -3 | -9 | -2 | 2.5 | 4% | . | . | . | .
CCN1C(=O)CC(C(=O)NC)SC1=Nc1cc(Cl)c(O)c(Cl)c1 (stereo unspecified) | -0.5 | -10 | 2 | -4 | -1.7 | 5% | . | . | . | .
CCCOc1ccc(N2C(=O)C3ON(c4ccccc4)C(CCC)C3C2=O)cc1 (stereo unspecified) | 3.4 | 11 | -2 | . | 1.6 | ? | . | . | . | .
O=C(CNC(=O)c1ccccc1)OC(C(=O)Nc1cc(C(F)(F)F)ccc1Cl)c1ccccc1 (stereo unspecified) | 0.6 | 11 | 2 | -5 | 5.4 | -1%&-14% | . | . | . | .
O=C(Nc1ccccc1OC(F)F)C1CCCN1C(=O)c1cccs1 (stereo unspecified) | 0.5 | -6 | -10 | -4 | 1.5 | 2% | -1.4 | 9 | 2 | -4.6

Additional records follow:
SMILES	A1 inh	Calb FLC	T cruzi inh	Beta cell apopt	RanGTP-Imp inh	Vif A3G	AF4-AF9 inh	rRNA inh HTS	rRNA inh HTS OD600	rRNA inh HTS RFP
COc1ccccc1-c1c(C)nn2c(N3CCN(Cc4ccccc4)CC3)cc(C)nc12	0.7	7	42	6	-1.9	-1%	3.1	-12	-18	1.8
COc1ccccc1NS(=O)(=O)c1cccc(C(=O)N/N=C/c2ccc(NC(C)=O)cc2)c1	-0.1	-4	-10	-4	5.9	.	-6.6	10	1	1.6
O=C(Nc1ccc(N2CCOCC2)cc1)c1cc2c(s1)CCCC2	-1.1	20	31	.	4.3	7%	11	-26	-37	-8.4
O=C1NC(Cc2c[nH]c3ccccc23)C(=O)N1Cc1cccc2ccccc12 (stereo unspecified)	0.4	6	27	2	-2.6	.	2.9	-27	-33	-4.9
O=C(O)CCn1c(SCc2cc(=O)n3ccccc3n2)nc2ccsc2c1=O	0.1	6	-12	1	1.0	26%	3.9	11	4	2.4
CCOC(=O)c1ccc(NC(=O)CSc2nnc(Cn3c(=O)sc4ccccc43)n2C)cc1	0.5	-5	1	-2	?	-12%	-0.9	11	15	-0.6
CCCN(CCC)CCNC(=O)C(NS(=O)(=O)c1ccc2c(c1)CCC(=O)N2)c1ccccc1 (stereo unspecified)	1.1	-6	-7	.	6.5	0%	.	.	.	.
N#Cc1nc(Cc2ccccc2)oc1NCCN1CCOCC1	0.0	-9	-12	1	1.3	-5%	13	9	14	-4.3
Cc1ccc(C)c(NC(=O)CCN2CC(C)CC(C)C2)c1 (stereo unspecified)	-0.1	0	0	-8	-2.9	.	-1.7	19	20	-0.4
O=C(CSc1nnc(-c2ccc(F)cc2)o1)c1ccc2c(c1)OCCO2	-0.3	-9	14	-8	6.7	-2%	5.6	7	7	-0.3
CCOC(=O)Nc1sc2c(c1C(=O)OCC)CCC2	0.0	14	-9	0	3.3	23%	.	.	.	.
CCc1ccccc1NC(=O)CC(O)(C(=O)OC)C(F)(F)F (stereo unspecified)	0.7	9	-36	4	4.4	>100µM*	.	.	.	.
O=C(COc1cccc(F)c1)Nc1nc(-c2cccnc2)cs1	-0.3	.	.	0	.	.	-3.9	7	10	2.5
Cc1ccc(NC(=O)C2CC(=O)N(C(C)c3ccccc3)C2)cc1 (stereo unspecified)	0.6	.	.	-2	.	-17%	-0.7	0	1	-1.5
CCOc1cc(NC(=O)C2CCCO2)c(OCC)cc1NC(=O)C1CC1 (stereo unspecified)	-1.1	15	3	-7	.	9%	.	.	.	.

Shown with two lines to a compound: entries from further up
Under each structure: A1 inh | Calb FLC | T cruzi inh | Beta cell apopt | RanGTP-Imp inh | Vif A3G | AF4-AF9 inh | rRNA inh HTS | rRNA inh HTS OD600 | rRNA inh HTS RFP
O=C(CCC(NC(=O)OCc1ccccc1)C(=O)OCc1ccccc1)NCC(=O)OCc1ccccc1 (stereo unspecified)
→ 0.1 | -1 | -12 | -8 | 3.8 | -3% | . | . | . | .
N#Cc1ccccc1NC(=O)COc1ccccc1C(=O)Nc1ccccc1
→ 1.7 | . | . | -2 | . | . | 0.1 | -1 | -3 | 0.0

The list goes on.
SMILES	A1 inh	Calb FLC	T cruzi inh	Beta cell apopt	RanGTP-Imp inh	Vif A3G	AF4-AF9 inh	rRNA inh HTS	rRNA inh HTS OD600	rRNA inh HTS RFP
CCN(CC)c1ccc(C=Nc2cc(C)cc(C)c2)c(O)c1	0.4	?	13	-14	-4.3	9%	3.8	5	-1	-3.2
Cc1ccc(S(=O)(=O)Nc2ccc(C(OC(=O)c3ccccc3[N+](=O)[O-])(C(F)(F)F)C(F)(F)F)cc2)cc1	-0.7	-6	19	110*	0.1	18%	.	.	.	.
c1ccc2c(Nc3nc(N4CCOCC4)c4ccccc4n3)cccc2c1	0.3	0	39	15	?	5%	7.4	-53	-74	-11
COc1ccc(CNC(=O)COC(=O)C2CC2C)cc1OC (stereo unspecified)	-0.5	0	0	.	0.9	2%	-0.2	5	6	-0.3
CC(=O)c1cccc(NS(=O)(=O)c2cc(-c3cnc(C4CC4)o3)ccc2C)c1	0.3	.	-3	7	0.2	.	-5.4	-14	-34	1.0

Screens as filed in PubChem.

Some of the compounds tested; count on the stated rates, not on these rows.
